Assay outcomes from PubChem BioAssay.
RGS16-Gao HTS = modulators of RGS16 binding to Galphao, primary screen, biochemical, human proteins, multiplexed bead flow cytometry; Regulator of G-protein signaling 16 (Homo sapiens) + Guanine nucleotide-binding protein …; bead-based flow cytometry RGS16-Galphao binding, fluorescence; actives lie on both sides; binding response (% of control), % at 10 µM; 220,000 compounds, 0.38% hits;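 active means below 25% or above 175%, edge rows of some plates excepted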;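 further: Galphao activated by GDP with aluminum fluoride before binding; 100% = wells without compound and 0% = beads without RGS; some results beyond the cut were filed as inactive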
Target sequence (O15492 whole entry, looked up): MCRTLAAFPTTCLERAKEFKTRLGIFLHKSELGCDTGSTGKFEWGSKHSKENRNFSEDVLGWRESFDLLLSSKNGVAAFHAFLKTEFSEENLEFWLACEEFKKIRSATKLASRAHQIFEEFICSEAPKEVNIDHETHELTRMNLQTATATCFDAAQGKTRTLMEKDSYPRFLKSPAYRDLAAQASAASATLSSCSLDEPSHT
Target sequence (P09471 whole entry, looked up): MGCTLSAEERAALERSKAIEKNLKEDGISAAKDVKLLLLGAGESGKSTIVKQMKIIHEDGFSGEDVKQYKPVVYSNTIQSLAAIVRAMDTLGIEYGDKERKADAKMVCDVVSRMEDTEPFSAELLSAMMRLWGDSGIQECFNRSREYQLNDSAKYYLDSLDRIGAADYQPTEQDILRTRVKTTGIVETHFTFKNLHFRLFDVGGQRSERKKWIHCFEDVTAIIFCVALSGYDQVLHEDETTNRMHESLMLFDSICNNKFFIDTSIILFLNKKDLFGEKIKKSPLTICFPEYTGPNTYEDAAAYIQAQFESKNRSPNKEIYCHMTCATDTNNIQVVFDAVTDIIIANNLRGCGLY
PKD1 inh = inhibitors of human PKD1 kinase, biochemical, fluorescence polarization; Serine/threonine-protein kinase D1 (Homo sapiens), Q15139; PKD1 kinase fluorescence polarization assay; inhibition, %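 (about 10 µM by stock and volumes)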; 200,000 compounds, 0.056% hits; AID 797, 2007;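 active means inhibition of 50% or more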;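 further: controls were vehicle for no effect and a reference inhibitor for full effect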
HSV augment = enhancers of HSV replication in host cells, fold increase, host cell viability; HSV replication augmentation in cells; maximum fold increase; 220,000 compounds, 0.005% hits;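 active means peak rise of 1.5-fold or more in the series; tested in PC3 cells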;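 further: first round at 10 µM; read as green reporter fluorescence; hits show the peak of a series up to 25 µM; 1 = signal of infected wells without compound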
Insulin prom inh = inhibitors of insulin promoter-driven GFP, primary screen, imaging, TRM-6 cells (human fetal islet line), eGFP reporter, cell count; 130,000 compounds, 0.9% hits; inhibition, % at 2 µM; reporter expression induced with tamoxifen;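 active means inhibition above the mean plus 3 SD, with well images judged a real hit on visual review, cut at about 60% in these data, passing the limit was not always enough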
GALR2 ag = GALR2 receptor agonists, primary screen, cell-based | activation, %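 (tested at 5 µM)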 | GALR2-expressing cells, agonist activation read-out | 140,000 compounds, 0.48% hits | Galanin receptor type 2 (Homo sapiens), O43603;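 active means above mean plus 3 SD of all compounds, about 5% in these data, not always enough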;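 further: 0% = vehicle buffer wells and 100% = reference agonist at full effect; tested in CHO reporter cells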
Target sequence (O43603 whole entry, looked up): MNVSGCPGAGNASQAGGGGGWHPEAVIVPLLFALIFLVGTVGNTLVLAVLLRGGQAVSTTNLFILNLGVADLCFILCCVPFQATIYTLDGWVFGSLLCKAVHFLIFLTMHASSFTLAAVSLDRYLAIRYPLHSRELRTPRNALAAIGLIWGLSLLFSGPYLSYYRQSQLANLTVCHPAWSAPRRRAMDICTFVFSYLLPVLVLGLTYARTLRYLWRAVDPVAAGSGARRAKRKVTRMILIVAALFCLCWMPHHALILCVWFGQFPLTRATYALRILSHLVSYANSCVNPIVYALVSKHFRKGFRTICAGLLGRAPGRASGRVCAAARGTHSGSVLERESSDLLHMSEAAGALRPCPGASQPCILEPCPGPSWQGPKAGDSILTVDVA
Insulin prom inh cell count = also measured in Insulin prom inh; calls as there; normalized cell count, %; measured here: cell count, toxicity; reference of the scale not given here;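 cells exposed to compound for 48 h; stained nuclei by imaging scaled within each plate; lower means fewer cells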
HSV augment primary fold = second read-out of HSV augment, no call of its own (marks repeat the call); fold increase; compound at 10 µM; measured here: primary screen fold increase 10 uM; tested in PC3 cells;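 GFP signal in the first replicate; 1 = infected wells without compound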
Active calls of the source: *; i = inactive; / = no result given.

| Molecule | HSV augment | GALR2 ag | PKD1 inh | Insulin prom inh cell count | HSV augment primary fold | Insulin prom inh | RGS16-Gao HTS |
| --- | --- | --- | --- | --- | --- | --- | --- |
| COc1ccc(Cn2c(=O)[nH]c3cc(C(=O)NCCCOC(C)C)ccc3c2=O)cc1 | i | / | 1.7 | / | 0.69 | / | 104.0 |
| O=C(c1cccc2ccccc12)C1CCCN(C(=O)C2CCOCC2)C1 (stereo not given) | i | / | / | / | 1 | / | 100.1 |
| CSc1nc2ccc(NC(=O)c3c(F)cccc3F)cc2s1 | i | / | -5.1 | / | 0.88 | / | 98.8 |
| O=C1CCN(C(=O)c2ccccc2)C2CCCCC12 (stereo not given) | i | -1.2 | -0.1 | / | 0.84 | / | 98.3 |
| Clc1ccccc1Nc1c2c(nc3ncnn13)CCC2 | i | -0.2 | -10.1 | / | 1.04 | / | 101.9 |
| CCOC(=O)N1CCN(c2nc(-c3cccc(OC)c3)cc(C(F)(F)F)n2)CC1 | i | -1.3 | 5.5 | 150.6 | 0.79 | -13.3 | 104.4 |
| O=C(CC1C(=O)NCCN1Cc1ccc(F)cc1)NCCCn1cccn1 (stereo not given) | i | / | -4.7 | / | 0.97 | / | 98.5 |
| CCOc1ccc2[nH]c(=O)c(CN(Cc3cccs3)C(CC)c3nnnn3C(C)(C)CC)cc2c1 (stereo not given) | i | -0.8 | -7.8 | 75.4 | 0.74 | -53.9 | 97.5 |
| Nc1ccc(C(=O)Nc2cccc(N)c2)cc1 | i | / | / | / | 0.83 | / | 103.7 |
| CCOC(=O)c1cnc2cc(-c3ccc(C(C)(C)C)cc3)nn2c1N | i | -1.1 | 3.5 | 130.3 | 0.86 | 9.7 | 103.7 |
| CCOc1ccccc1NS(=O)(=O)c1cn(C)nc1C | i | / | -3.4 | 100.8 | 1.13 | -52.6 | 102.8 |
| COc1ccc(OC)c(C(=O)c2ccc(C(=O)c3cc(OC)ccc3OC)cc2)c1 | i | -3.1 | -9.4 | 112.0 | 0.77 | -300.0 | 101.1 |
| CCCOc1ccc(N2C(=O)CC(N(CCc3ccc(OC)cc3)C(=O)c3ccccc3)C2=O)cc1 (stereo not given) | i | / | / | / | 1.02 | / | 98.2 |
| COc1ccccc1Nc1ccc(C(=O)O)cc1[N+](=O)[O-] | i | / | 4.4 | 51.2 | 0.88 | 8.3 | 121.7 |
| CCOC(=O)c1cc(-c2nnc(-c3cc(OC)c(OC)c(OC)c3)o2)c(C)nc1C | i | -1.7 | -0.5 | 140.7 | 0.9 | -63.6 | / |
| CCCN(CCC)C(=O)CSc1nc2ccccc2c(=O)n1CC1COc2ccccc2O1 (stereo not given) | i | -0.1 | -8.5 | 102.8 | 0.84 | 25.7 | 99.7 |
| C=C(C)C(=O)NNc1ccccc1 | i | / | 0.6 | 87.8 | 0.96 | -15.0 | 104.4 |
| Cc1cc(C)c2cc(CN(CCO)C(=O)NC3CCCCC3)c(=O)[nH]c2c1 | i | / | / | / | 1 | / | 102.4 |
| COc1ccccc1N1CCN(C(=O)c2c(-c3ccccc3Cl)noc2C)CC1 | i | -2.5 | -0.1 | / | 0.87 | / | -10.6* |
| CCN(CC)c1ccc(S(=O)(=O)N2CCOCC2)cc1NC(=O)CN1CCc2ccccc2C1 | i | / | 0.0 | 104.4 | 0.91 | -48.6 | 102.5 |
| Cc1ccc2[nH]c(=O)c(CNS(=O)(=O)c3ccccc3)c(-c3ccccc3)c2c1 | i | -0.1 | 4.2 | 122.2 | 0.76 | -53.3 | 103.4 |
| CCOC(=O)C1(Cc2cccc(F)c2)CCN(CC2CC2)CC1 | i | / | 0.3 | / | 0.98 | / | 101.1 |
| O=C(Nc1ccccc1N1CCCCC1)c1ncoc1-c1cccc(F)c1 | i | / | / | / | 1.18 | / | 106.2 |
| CC(=O)N(Cc1ccc(F)cc1)c1cccc(C)c1C | i | / | -3.1 | / | 0.9 | / | 101.2 |
| Cc1noc(NC(=O)c2c(-c3c(Cl)cccc3Cl)noc2C)c1[N+](=O)[O-] | i | / | / | / | 1.09 | / | 106.5 |
| CCC(=O)NNc1nc2c(Cl)cccc2s1 | i | / | 7.4 | 85.0 | 0.99 | -5.3 | 93.6 |
| CN1C(=O)c2ccccc2C(C(=O)NCC2CCCO2)C1c1c[nH]c2ccccc12 (stereo not given) | i | -0.8 | 0.8 | 78.8 | 0.99 | 24.1 | 102.6 |
| COc1cc(C(=O)OCc2cc3ccccc3[nH]c2=O)cc(OC)c1OC | i | 0.3 | -7.4 | 125.5 | 1 | -21.1 | 99.2 |
| COc1ccc(C2/C=C\CNCC(=O)N2Cc2ccc(F)cc2)cc1 (stereo not given) | i | / | / | / | 0.965 | / | 103.8 |
| CN1C(=S)SC(/[N+]([O-])=C\c2ccco2)C1(C)C (stereo not given) | i | -2.1 | -13.5 | 89.2 | 1.06 | -40.0 | 105.0 |
| O=C(N/N=C/c1ccc(OC2CSC2)cc1)c1ccc(CN2CCOCC2)cc1 | i | / | -9.2 | / | 0.84 | / | 111.8 |
| CCc1cccc(Nc2cc(C)nc3nc(C)nn23)c1 | i | -0.8 | -8.0 | / | 1.31 | / | 91.6 |
| c1ccc(Cn2ncc3ccccc32)cc1 | i | -1.4 | -0.8 | / | 1.03 | / | 100.5 |
| Cc1ccc(CCNC(=O)C2CCN(S(=O)(=O)c3ccc4c(c3)CCC(=O)N4)CC2)cc1 | i | -1.3 | -0.3 | 91.9 | 1.01 | -14.3 | 113.6 |
| Cc1ccc(OCC(=O)NCC2CCCO2)c(C)c1 (stereo not given) | i | / | -0.6 | / | 1.08 | / | 100.5 |
| Nc1cccc(-c2nc3ccccc3s2)c1 | i | -0.7 | 1.0 | 119.0 | 0.86 | 13.0 | 98.6 |
| Cc1nc(NC(=S)NC(=O)c2ccccc2)sc1C(=O)N(C)C | i | -1.4 | -1.3 | 92.0 | 1.04 | 10.0 | 104.4 |
| COc1ccc2nc(NC(=O)Cc3ccc(OC)c(S(=O)(=O)N4CCOCC4)c3)sc2c1 | i | 1.9 | -7.8 | / | 0.9 | / | 109.6 |
| CCN(CC)c1ccc(C(=O)OCC(=O)Nc2sccc2C#N)cc1 | i | 0.0 | -3.6 | / | 0.98 | / | 103.2 |
| O=C(c1cc(NC(=O)C23CC4CC(CC(C4)C2)C3)cc(NC(=O)C23CC4CC(CC(C4)C2)C3)c1)N1CCCCC1 | i | -1.7 | -4.8 | 114.3 | 0.99 | 6.2 | 70.1 |

Compound profiles, from the list above. Screens in order: HSV augment, GALR2 ag, PKD1 inh, Insulin prom inh cell count, HSV augment primary fold, Insulin prom inh, RGS16-Gao HTS
`Nc1cccc(-c2nc3ccccc3s2)c1` is listed as i, -0.7, 1.0, 119.0, 0.86, 13.0, 98.6
`Cc1ccc(OCC(=O)NCC2CCCO2)c(C)c1` (stereo not given) is listed as i, /, -0.6, /, 1.08, /, 100.5
`c1ccc(Cn2ncc3ccccc32)cc1` is listed as i, -1.4, -0.8, /, 1.03, /, 100.5
`CCN(CC)c1ccc(C(=O)OCC(=O)Nc2sccc2C#N)cc1` is listed as i, 0.0, -3.6, /, 0.98, /, 103.2

Next section.
| Molecule | HSV augment | GALR2 ag | PKD1 inh | Insulin prom inh cell count | HSV augment primary fold | Insulin prom inh | RGS16-Gao HTS |
| --- | --- | --- | --- | --- | --- | --- | --- |
| Cc1ccccc1NC(=O)c1cc(S(=O)(=O)N2CCCCC2)cs1 | i | -1.0 | -3.4 | 101.5 | 0.82 | -2.9 | 94.4 |
| Cn1nc(C(F)(F)F)c(-c2cccc(C(F)(F)F)c2)c1NC(=O)c1cccnc1 | i | / | / | / | 0.96 | / | 99.5 |
| O=C(NC1CCN(Cc2ccccc2)CC1)c1ccc(S(=O)(=O)NCc2ccco2)cc1 | i | / | 7.2 | 83.3 | 1.03 | -27.8 | 110.0 |
| COc1ccc(C)cc1S(=O)(=O)NC1CCCCC1C (stereo not given) | i | -0.9 | -2.4 | 149.5 | 1 | -31.0 | 103.0 |
| CCOC(=O)N1CCN(CC(O)COc2c(OC)cccc2OC)CC1 (stereo not given) | i | 0.3 | 5.9 | 91.8 | 0.93 | -22.6 | 117.6 |
| O=C(O)/C=C/c1cnc2ccccc2n1 | i | / | -1.5 | 103.8 | 0.99 | 21.4 | 101.2 |
| CCCC(C)NS(=O)(=O)c1ccc(OC)c(C)c1 (stereo not given) | i | -1.3 | -7.0 | 74.1 | 0.83 | 17.1 | 99.4 |
| CCC(C)C(NC(N)=O)C(=O)Nc1ccc(S(=O)(=O)Nc2ccc(OC)cc2)cc1 (stereo not given) | i | / | 3.0 | 35.8 | 1.03 | 26.7 | 102.8 |
| CCOC(=O)C(Sc1ncnc2c1sc1nc(N3CCOCC3)c3c(c12)CCCC3)c1ccccc1 (stereo not given) | i | -1.0 | 10.4 | 103.4 | 1.04 | 30.0 | 97.0 |
| Cc1cc2c(cc1C)NC(CC(=O)NCc1ccccc1)C(=O)N2 (stereo not given) | i | -1.2 | 1.7 | 121.8 | 1 | -106.2 | 87.0 |
| CC(C)n1cc(CN2CCN(CCc3ccccc3)C(CCO)C2)cn1 (stereo not given) | i | / | -9.1 | / | 0.92 | / | 98.8 |
| CCCc1nc2ccccc2c(C(=O)OCC(=O)NCc2ccc3c(c2)OCO3)c1CC | i | 0.1 | 6.8 | 75.8 | 0.95 | 12.9 | 94.0 |
| Cc1nnc(C)n1/N=C/c1cc(Br)ccc1O | i | -0.4 | 4.8 | / | 0.84 | / | 102.1 |
| CCn1c(SC)nc2c(c1=O)SC(C)C2 (stereo not given) | i | -0.6 | -5.3 | 102.3 | 0.9 | -21.9 | 106.5 |
| COc1cnc(-c2ccccc2)nc1Oc1cccc(C)c1C | i | -2.1 | -5.2 | 109.3 | 0.91 | 14.0 | 101.2 |
| Cc1ccc(S(=O)(=O)N=Nc2c(O)[nH]c3ccccc23)cc1C | i | -1.4 | -1.0 | 130.8 | 0.95 | 33.3 | 103.0 |
| COc1cccc2cc(C(=O)N(C)C)c(=O)oc12 | i | -2.9 | 6.0 | 69.7 | 0.93 | -40.9 | 99.7 |
| CCN(CC)S(=O)(=O)c1ccc(C(=O)NCCSc2c[nH]c3ccccc23)cc1 | i | 0.7 | -8.9 | 140.1 | 0.84 | -21.9 | 45.1 |
| CCOCCCNc1nc2ccccc2[nH]1 | i | -0.6 | -5.0 | 131.3 | 1.05 | -30.6 | 98.3 |
| O=C(Nc1cc(=O)[nH]c2ncnn12)c1ccccc1Cl | i | 1.4 | 1.9 | 62.4 | 0.74 | -7.1 | 101.4 |
| O=C(COC(=O)c1cncc(Br)c1)NCc1ccc2c(c1)OCO2 | i | / | 5.0 | / | 1 | / | 100.8 |
| CC(C)(C)c1ccc(OCCCC(=O)Nc2ccc(S(N)(=O)=O)cc2)cc1 | i | / | -5.1 | / | 0.87 | / | 96.1 |
| Cc1ccc(-n2cc(-c3ccccc3)c3c(NN4CCOCC4)ncnc32)cc1 | i | 1.1 | 1.2 | 92.3 | 0.86 | 3.7 | 107.4 |
| O=C(NC(=S)NNC(=O)c1ccccc1[N+](=O)[O-])c1ccccc1 | i | -2.1 | 5.9 | 109.9 | 0.94 | 15.0 | 86.7 |
| CCOc1cc(C2CC(=O)Nc3cc(C)c(C)cc32)ccc1O (stereo not given) | i | -2.7 | 4.9 | 106.5 | 1.02 | 0.0 | 100.0 |
| Cc1ccc(CSc2ncnc3onc(C)c23)cc1 | i | / | / | / | 0.93 | / | 110.2 |
| CCOc1ccc(C(=O)NC2=NCCS2)cc1 | i | / | 5.7 | 41.7* | 1.05 | 83.3* | 98.7 |
| O=[N+]([O-])c1cc(CN2CCN(c3ccccc3)CC2)c(O)c2ncccc12 | i | / | 3.1 | 46.1 | 0.88 | -330.0 | 97.2 |
| Cc1onc(-c2c(F)cccc2Cl)c1C(O)c1ccc(F)cc1 (stereo not given) | i | / | / | / | 1.14 | / | 97.8 |
| CCOC(=O)C(NC(C)=O)C(=O)Nc1ccc(C(C)(C)C)cc1 (stereo not given) | i | / | -1.5 | / | 0.97 | / | 96.6 |
| Clc1nc(Nc2ccc(N3CCOCC3)cc2)c2ccccc2n1 | i | / | -0.7 | / | 0.91 | / | 72.2 |
| COC(=O)C1=NNCC12CC(=O)N(c1ccc(Br)cc1)C2=O (stereo not given) | i | 0.1 | -4.9 | 84.0 | 1.04 | 0.0 | 157.8 |

Outcome played no part in choosing rows (roughly 1.3% active in at least one column).
